# Beta cell apopt – blocks beta cell apoptosis; INS-1E cytokine-induced death, ATP luminescence, 48 h; percent of positive-control rescue, neutral wells zero; protection from apoptosis, % (test concentration not listed); actives 0.8% (n = 300,000); AID 435005;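 active = all replicates at 75% or more, or half of them and the mean; inconclusive = half reach 75% but not the mean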;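 note: 0% = cytokine-treated negative control wells and 100% = positive control rescue; higher means more ATP so stronger rescue from cytokine killing; wells of about 40 µL received 100 nL stock; the first replicate is given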
# A1 inh – inhibitors of the anti-apoptotic protein A1, read as caspase activation. AID 2462. actives 0.066% (n = 330,000). MEF A1-2A-BIM cells, Caspase-Glo 3/7 luminescence, 3 h; percent of clofoctol response, vehicle zero. caspase activation, % (no concentration beside the values);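 active = over half of replicate activation scores above 10%, or exactly half above 10 with the replicate mean above 10; inconclusive = replicate mean below 10 yet half the replicates above 10; inactive = over half of replicates below 10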;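 note: wells of about 30 µL received 50 nL stock; many hits fall short of the cut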
# T cruzi repl – blocks replication of Trypanosoma cruzi; T. cruzi beta-gal in NIH3T3, luminescence, 90 h; inhibition, % (concentration not given with the values); actives 1.4% (n = 300,000);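 active = mean inhibition across valid replicates above about 55%, limit read from the data; inconclusive = mean below that limit but half or more replicates reach it; inactive = mean below it, under half of replicates reach it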;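 note: signal also drops with host cell toxicity which is not excluded here; 0% = plate median of DMSO wells and 100% = zero luminescence signal; higher percent means less beta-gal luminescence so fewer parasites; stock transfer was 50 nL into about 50 µL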
# RanGTP-Imp inh – inhibitors of RanGTP-importin-beta interaction, primary screen, biochemical, FRET, CFP-Ran, YFP-importin-beta, homogeneous; inhibition, % (test concentration not listed); actives 1.1% (n = 300,000); cell-free CFP-Ran/YFP-importin-beta FRET ratio; AID 2216;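 active = most replicates above 15%; inconclusive = exactly half above 15%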;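 note: 0% = DMSO wells and 100% = Ran loaded with GDP instead of GTP; wells of about 40 µL received 100 nL stock; the first replicate is given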
# AF4-AF9 inh – inhibitors of human MLL-AF4/AF9 interaction. inhibition, % at 10 µM. P42568. actives 0.47% (n = 350,000). AlphaScreen, biotin-AF4 peptide binding to FLAG-AF9;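 active = every replicate reaching a set inhibition limit, whatever the replicate mean, cut at about 25% in these data; inconclusive = mean inhibition reaches that limit but some replicates miss it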;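 note: 0% = plate neutral control median and 100% = total signal loss; the record names both 10 and 1 µM as test concentration; the first replicate is given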
# LANA-H2B inh – blocks KSHV LANA binding to histone H2A/H2B. cell-free LANA-H2A/H2B peptide, fluorescence polarization. actives 0.6% (n = 320,000). Q9QR71. inhibition, % (test concentration not listed). AID 2629; in the data active = inhibition mostly above about 10%, no sharp cut-off; inactive = mostly below about 6.7%;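 note: stock transfer was 7.5 nL into about 10 µL; 0% = median of vehicle wells and 100% = median of positive control wells; one replicate is shown; the record names a cut of 25% in any replicate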
# Target sequence (Q9QR71 whole entry, looked up): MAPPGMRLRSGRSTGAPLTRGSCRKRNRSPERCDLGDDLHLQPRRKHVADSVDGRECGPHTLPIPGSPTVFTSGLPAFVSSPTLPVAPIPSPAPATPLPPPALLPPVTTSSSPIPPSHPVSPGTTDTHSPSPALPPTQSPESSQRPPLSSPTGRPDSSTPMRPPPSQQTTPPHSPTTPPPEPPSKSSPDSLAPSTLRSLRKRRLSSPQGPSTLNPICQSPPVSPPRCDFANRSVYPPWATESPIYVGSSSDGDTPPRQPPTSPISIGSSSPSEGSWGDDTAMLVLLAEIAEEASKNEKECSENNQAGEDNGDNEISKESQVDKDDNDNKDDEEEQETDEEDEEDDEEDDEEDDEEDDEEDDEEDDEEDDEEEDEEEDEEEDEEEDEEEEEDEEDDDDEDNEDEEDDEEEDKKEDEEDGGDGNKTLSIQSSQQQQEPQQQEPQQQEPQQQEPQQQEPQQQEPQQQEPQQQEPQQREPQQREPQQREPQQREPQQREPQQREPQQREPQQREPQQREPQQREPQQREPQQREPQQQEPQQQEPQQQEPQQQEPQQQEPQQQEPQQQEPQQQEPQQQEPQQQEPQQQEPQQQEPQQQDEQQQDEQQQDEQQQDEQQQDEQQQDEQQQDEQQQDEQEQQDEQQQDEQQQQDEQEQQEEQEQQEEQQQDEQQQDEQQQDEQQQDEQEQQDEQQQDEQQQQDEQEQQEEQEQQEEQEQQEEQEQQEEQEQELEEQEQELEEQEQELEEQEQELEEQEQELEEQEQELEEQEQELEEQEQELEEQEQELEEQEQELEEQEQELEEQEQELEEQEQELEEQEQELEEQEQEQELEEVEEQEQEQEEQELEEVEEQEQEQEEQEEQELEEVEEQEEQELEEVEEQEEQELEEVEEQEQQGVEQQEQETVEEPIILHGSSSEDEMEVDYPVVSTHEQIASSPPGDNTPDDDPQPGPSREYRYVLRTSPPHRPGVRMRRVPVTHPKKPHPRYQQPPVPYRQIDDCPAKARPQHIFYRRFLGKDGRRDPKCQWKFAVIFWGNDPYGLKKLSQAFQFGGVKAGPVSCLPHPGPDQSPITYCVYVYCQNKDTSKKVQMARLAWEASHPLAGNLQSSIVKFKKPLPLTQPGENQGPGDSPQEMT
# Calb FLC – affects C. albicans growth with fluconazole; C. albicans CaCi-2 (fluconazole-resistant clinical isolate) + fluconazole, Alamar Blue growth, 48 h; growth inhibition, % (no concentration beside the values); actives 0.57% (n = 300,000); AID 1979;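 active = most replicates above 75%; inconclusive = exactly half above 75%; inactive = most below 75%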;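 note: all wells also contain fluconazole at 8 µg/ml as a sub-toxic cotreatment; 0% = median of DMSO wells and 100% = median of geldanamycin control wells; wells of about 8 µL received 7.5 nL stock; the first replicate is given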
# Vif TR-FRET – HIV-1 Vif–A3G interaction blockers – biochemical, TR-FRET, GST-Vif 1-94, biotin-A3G peptide, dose response retest, primary screen (AID 1117319); TR-FRET GST-Vif / biotin-A3G peptide binding; higher % means a stronger effect; test concentration not given here; strong numbers were not always called active; actives 0.57% (n = 260,000); inhibition, %, or IC50 in µM where a hit was titrated;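 active = above the screen mean plus three standard deviations and confirmed in dose response; inconclusive = results disagree or hit not tested in dose response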;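 note: Vif residues 1-94 fused to GST binding biotinylated APOBEC3G peptide 110-148; 0% = full assay without inhibitor and 100% = GST in place of GST-Vif; retest series ran down from 100 µM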
# Active calls of the source: *; ? = inconclusive; . = not tested or not shown; & = joins results of further samples. Not a hit list; about 4.3% have a hit in one of these screens.
SMILES,Beta cell apopt,A1 inh,T cruzi repl,RanGTP-Imp inh,AF4-AF9 inh,LANA-H2B inh,Calb FLC,Vif TR-FRET
Cc1ccc(CC(=O)N/N=C/c2ccc3c(c2)OCO3)cc1,-1,-1.7,-12,2.8,-3.9,-5.5,-5,-3%
O=C(Cc1ccc(Cl)cc1)N/N=C/c1c(Cl)cccc1Cl,2,1.4,30,?,.,9.2,-5,.
Cc1oc2ccccc2c1CNC(=O)N(C)C,.,1.1,-13,3.0,-2.9,-2.3,-7,.
COCCNC(=O)c1ccc2snnc2c1,-3,0.3,-7,-2.4,.,0.2,-5,-1%
COc1ccc(NC(C)=O)cc1S(=O)(=O)N(C)Cc1c(C)nn(-c2ccccc2)c1C,6,0.0,.,.,-9.8,-34,.,.
CCCOP(=O)(c1ccc(N(C)C)cc1)C(Nc1ccccc1)c1ccc(N(C)C)cc1 (stereo not given),0,-0.6,23,-1.3,0.6,3.0,-57,.
O=S(=O)(Nc1nc(-c2ccccc2)cs1)c1cccc(C(F)(F)F)c1,-1,-0.2,13,1.4,-2.5,1.9,7,12%
COCc1ccc(C(=O)Nc2cccc(S(=O)(=O)N(C)c3ccccc3)c2)cc1,3,0.2,.,.,-0.5,1.4,.,-8%
O=C(CSc1nnc(CNC(=O)c2ccccc2)o1)NCC1CCCO1 (stereo not given),-25,?,-1,-1.7,-4.9,0.9,-1,-8%
CCOc1ccc(CCNC(=O)C2CCCN(S(=O)(=O)c3c(C)n[nH]c3C)C2)cc1OCC (stereo not given),4,-0.3,17,-4.6,.,2.1,-4,-4%
O=C(CCCc1cccs1)Nc1nc2c(s1)CCCC2,-5,-0.6,11,-1.3,.,5.7,-21,13%
Cc1c(C(=O)N2CCC2)oc2ccc(Br)cc12,2,0.3,1,1.0,-5.3,4.6,.,-11%
CC1CCCCC1NC(=O)C1CCCN1S(=O)(=O)c1cccc2nsnc12 (stereo not given),0,0.1,4,-2.6,12,1.0,7,2%
Cn1c2ccccc2c(=O)c2ccc(C#CC3(O)CCCCC3)cc21,13,-2.2,11,165*,-7.3,-6.0,-19,.
O=C(O)C(Cc1ccc(O)cc1)N1C(=O)C2CCCCC2C1=O (stereo not given),-3,0.2,5,-1.8,-11,1.2,-3,16%

# Sorted by formula weight (smallest number first): part of the list above
SMILES,Beta cell apopt,A1 inh,T cruzi repl,RanGTP-Imp inh,AF4-AF9 inh,LANA-H2B inh,Calb FLC,Vif TR-FRET
Cc1oc2ccccc2c1CNC(=O)N(C)C,.,1.1,-13,3.0,-2.9,-2.3,-7,.
Cn1c2ccccc2c(=O)c2ccc(C#CC3(O)CCCCC3)cc21,13,-2.2,11,165*,-7.3,-6.0,-19,.
O=C(Cc1ccc(Cl)cc1)N/N=C/c1c(Cl)cccc1Cl,2,1.4,30,?,.,9.2,-5,.
O=C(CSc1nnc(CNC(=O)c2ccccc2)o1)NCC1CCCO1 (stereo not given),-25,?,-1,-1.7,-4.9,0.9,-1,-8%
CCCOP(=O)(c1ccc(N(C)C)cc1)C(Nc1ccccc1)c1ccc(N(C)C)cc1 (stereo not given),0,-0.6,23,-1.3,0.6,3.0,-57,.

# Following part:
SMILES,Beta cell apopt,A1 inh,T cruzi repl,RanGTP-Imp inh,AF4-AF9 inh,LANA-H2B inh,Calb FLC,Vif TR-FRET
Cc1cccc(NC(=O)c2cccc(N3C(=O)C4C5C=CC(C6CC56)C4C3=O)c2)c1 (stereo not given),.,-0.7,19,-0.2,-1.9,-5.6,3,?
Cc1nc(SCC(=O)Nc2ccccc2C(F)(F)F)c(C#N)c(C)c1CC(=O)c1ccc(Br)cc1,11,0.2,27,0.8,.,-2.9,12,-91%
CC(C)(C)c1ccc(C(=O)N/N=C/c2cccc(Cl)c2)cc1,.,-1.2,36,4.6,.,-0.7,9,-3%
N/C(=N\c1nc2ccccc2o1)NC(=O)c1ccc(F)cc1,12,1.8,-5,-0.3,.,1.9,-32,-2%
O=C(c1c(F)c(F)c(F)c(F)c1F)N1CCN(Cc2ccc3c(c2)OCO3)CC1,-7,1.0,-5,2.8,-5.5,-1.5,-2,.
CCN(c1cccc(C)c1)S(=O)(=O)c1cc(CN2C(=O)c3cccnc3C2=O)ccc1OC,-7,-0.2,-10,1.0,-5.4,2.2,-1,.
COC(=O)c1ccccc1NC(=O)CCCn1nc(C)c2c(C)n(-c3ccccc3)nc2c1=O,2,0.5,-15,0.5,-1.2,-2.3,9,8%
O=C(O)CCSc1nc2ccccc2n1Cc1ccccc1,3,0.7,-9,6.4,1.8,0.7,9,1%
COc1ccc(N2CCN(Cc3nc4scc(-c5cccs5)c4c(=O)[nH]3)CC2)cc1,-8,-0.8,1,-1.5,-0.8,12,4,5%
O=C(O)C/C(=C\c1cccc(NC(=O)c2ccccc2Cl)c1)c1nc2ccccc2s1,1,-0.3,4,1.2,-3.9,-4.7,8,24%
Cc1ccccc1-c1nc(CS(=O)CC(=O)NC2CCCCC2)c(C)o1 (stereo not given),-2,-0.5,31,-4.3,-3.0,3.1,-8,1%
CCCCC[C@H]1CN(C2CCCCC2)C(=O)[C@@H]1CC(=O)NCc1ccccc1,4,0.8,15,2.3,2.1,0.8,3,.
NC(=O)c1cc(-c2ccccc2)nc(N2CCCCCC2)n1,6,0.5,33,3.2,.,-1.1,18,0%
CCCc1sc(N)nc1-c1ccc(Cl)cc1,3,-0.4,5,1.4,7.4,1.0,1,4%
CCOC(=O)C1(C(F)(F)F)N=C(c2ccccc2F)OC(N(C)C)=N1 (stereo not given),-11,0.5,-2,-0.5,-9.8,-3.5,1,-4%
CCOc1ccc(NC(=O)N2CCN(S(C)(=O)=O)CC2)cc1,-2,0.3,2,0.4,2.9,2.9,-5,3%
Cc1ccc(-c2ccc(SCC(=O)NC3CCCCC3)nn2)cc1,6,-1.7,5,-0.6,-0.8,-1.5,-8,.
COc1ccc(C2C(C(=O)Nc3ccccc3)=C(C)Nc3nc(CCCO)nn32)cc1 (stereo not given),-3,0.2,-4,?,.,1.1,-6,-2%
CCCNc1nc2c(c(=O)[nH]c(=O)n2C)n1CCOc1ccccc1,0,-0.4,0,-2.6,-2.7,1.6,-11,-3%
CCCCCn1nc(C)c(/C=N\NC(=O)c2cc(C)oc2C)c1C,1,-1.0,24,-0.3,.,-6.1,16,-3%
Cc1cc2nc3s/c(=C/c4ccc(-c5ccccc5C(=O)O)o4)c(=O)n3c2cc1C,-8,-1.9,-10,1.4,-6.4,0.8,1,.
Fc1cccc(Cl)c1CNC(c1ccccc1)c1ccccc1,-3,0.8,13,8.5,-53,-2.1,-29,0%
C/C(=N\NC(=O)CSc1nc2ccccc2s1)c1ccco1,0,-0.1,1,-0.9,-1.2,-0.5,5,13%
O=C(Nc1ccc(Oc2ccc(NC(=O)Nc3ccc([N+](=O)[O-])cc3)cc2)cc1)Nc1ccc([N+](=O)[O-])cc1,110*,-0.6,67*,-1.3,2.3,0.1,-7,-12%
CC(=O)N(c1nnc(-c2ccc(C)cc2)s1)C1CCCC1,0,0.0,0,2.3,-4.9,-6.3,0,.
COC(=O)C1=C(C)NC(=O)/C1=C\c1ccc2c(c1)OCO2,-1,0.3,-12,2.8,.,3.3,-26,16%
Cn1nccc1C(=O)N1CCCC(N2CCN(c3cccc(C(F)(F)F)c3)CC2)C1 (stereo not given),.,0.6,3,1.3,0.5,-2.6,5,-9%
CCOc1ccc2[nH]c3nc(SCC(=O)NC4CCCC4)nnc3c2c1,-2,0.4,-9,-3.0,0.0,-1.4,-2,.
Cc1n[nH]c(C)c1N1C(=O)c2cccc3c(Br)ccc(c23)C1=O,4,0.1,-8,1.1,.,0.1,15,.
COc1nccnc1NS(=O)(=O)c1ccc(NC(=S)NC(=O)c2cccc(F)c2)cc1,0,-8.2,-25,1.5,.,3.1,25,-12%
CCn1c(=O)cc(SCC(=O)NCCC2=CCCCC2)c2ccccc21,-1,0.7,-6,4.3,.,2.0,18,-1%
COc1ccccc1N1CCN(C(=O)c2cccc(S(=O)(=O)NCc3cccnc3)c2)CC1,4,-0.4,.,.,2.3,0.6,.,1%
COc1ccccc1/C=C/C(=O)OCC(=O)NC1CCCCCCC1,-6,-0.7,.,.,3.7,-5.5,.,.
CC(C)CC(=O)Nc1ccc([N+](=O)[O-])cc1Cl,-2,-1.7,-6,4.3,-0.7,2.3,-12,.
COC(=O)c1ccc(COC(=O)c2ccc(-n3cnnn3)cc2)o1,2,0.3,-5,.,.,4.8,-6,-2%
O=C(CCNS(=O)(=O)c1cccc2nsnc12)N1CC(=O)N(CCc2ccccc2)C(=O)C1,-10,0.6,-9,-3.2,.,-3.2,-3,32%&4%
COc1cccc(-c2nnc(SCC(=O)OC(C)C)n2Cc2ccco2)c1,-2,-8.8,6,-5.2,.,-3.6,3,1%
COc1ccccc1Oc1ccc(NC(=O)Cc2ccccc2)cc1,3,-1.8,11,3.2,0.5,-2.6,6,.
CC(C)C(C(=O)NC1=NCCS1)c1ccc(Cl)cc1 (stereo not given),8,0.9,6,-0.2,-1.3,4.0,-11,-2%
Cc1ccnc(NC(=O)COC(=O)c2ccc(F)cc2F)n1,-3,0.9,-6,0.5,-2.5,-2.5,-2,?
COc1ccc(C(C(=O)NC2CCCCC2)N(C(=O)c2ccccn2)c2cccnc2)cc1 (stereo not given),-3,0.5,-4,-0.7,1.1,2.1,1,-1%
COc1ccc(C(c2nnnn2Cc2cccs2)N2CCN(c3ccccc3)CC2)cc1OC (stereo not given),-3,0.5,-19,4.0,.,0.4,2,5%
COc1cc(OC)cc(C(=O)OCC(=O)c2ccc(S(=O)(=O)N3CCCCC3)cc2)c1,-4,0.0,.,.,1.2,-12,.,-4%
O=C(NCCN1C(=O)S/C(=C\c2ccc(Cl)c([N+](=O)[O-])c2)C1=O)C1=COCCO1,-2,-0.7,-18,2.4,1.1,5.0,.,-7%
O=c1c2ccccc2nc2n1CCCN2,-3,1.0,-9,0.7,-1.7,1.1,0,3%
Nc1ccccc1Sc1cc(Cl)nnc1Cl,-1,0.1,-6,3.8,0.1,-4.2,2,-7%
CCN1CCN(C(=O)CN(c2ccc(C)cc2)S(C)(=O)=O)CC1,-3,1.5,0,-5.0,.,0.9,3,18%
Cc1cccc(COc2coc(CN3CCN(C(=O)c4ccco4)CC3)cc2=O)c1,.,0.1,12,0.6,-1.2,0.6,-6,.
O=C(Cn1nnc2ccccc2c1=O)Nc1ccc(S(=O)(=O)N2CCOCC2)cc1,4,-0.7,-2,3.7,3.8,1.0,-19,-9%
O=C(c1cc(S(=O)(=O)N2CCOCC2)c(Cl)cc1Cl)N1CCN(S(=O)(=O)c2cccc(F)c2)CC1,-5,0.6,.,.,6.0,-1.8,.,7%
C=CCOc1c(Br)cc(CNn2nnnc2N)cc1OC,2,0.1,0,1.4,.,0.9,-3,0%

# High-throughput results as filed in PubChem.
